# KCNQ2 enhance = KCNQ2 (rat) channel potentiation; B-score at 10 µM; 310,000 compounds, 0.54% hits; O88943; AID 2239; CHO-K1 KCNQ2, FluxOR thallium flux fluorescence; stronger effect = higher value;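 active means fluorescence ratio B-score at least 3 SD of library B-scores, with initial fluorescence B-score within 3 SD, cut at about 5.3 in these data; same plate scores as AID 2156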;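 further: B-score of peak minus minimum over baseline fluorescence ratio after K+ and Tl+ stimulus; positive B-score means potentiation of KCNQ2 with more thallium influx and brighter signal; only the inactives scoring about 0 or higher are listed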
# Target sequence (O88943 whole entry, looked up): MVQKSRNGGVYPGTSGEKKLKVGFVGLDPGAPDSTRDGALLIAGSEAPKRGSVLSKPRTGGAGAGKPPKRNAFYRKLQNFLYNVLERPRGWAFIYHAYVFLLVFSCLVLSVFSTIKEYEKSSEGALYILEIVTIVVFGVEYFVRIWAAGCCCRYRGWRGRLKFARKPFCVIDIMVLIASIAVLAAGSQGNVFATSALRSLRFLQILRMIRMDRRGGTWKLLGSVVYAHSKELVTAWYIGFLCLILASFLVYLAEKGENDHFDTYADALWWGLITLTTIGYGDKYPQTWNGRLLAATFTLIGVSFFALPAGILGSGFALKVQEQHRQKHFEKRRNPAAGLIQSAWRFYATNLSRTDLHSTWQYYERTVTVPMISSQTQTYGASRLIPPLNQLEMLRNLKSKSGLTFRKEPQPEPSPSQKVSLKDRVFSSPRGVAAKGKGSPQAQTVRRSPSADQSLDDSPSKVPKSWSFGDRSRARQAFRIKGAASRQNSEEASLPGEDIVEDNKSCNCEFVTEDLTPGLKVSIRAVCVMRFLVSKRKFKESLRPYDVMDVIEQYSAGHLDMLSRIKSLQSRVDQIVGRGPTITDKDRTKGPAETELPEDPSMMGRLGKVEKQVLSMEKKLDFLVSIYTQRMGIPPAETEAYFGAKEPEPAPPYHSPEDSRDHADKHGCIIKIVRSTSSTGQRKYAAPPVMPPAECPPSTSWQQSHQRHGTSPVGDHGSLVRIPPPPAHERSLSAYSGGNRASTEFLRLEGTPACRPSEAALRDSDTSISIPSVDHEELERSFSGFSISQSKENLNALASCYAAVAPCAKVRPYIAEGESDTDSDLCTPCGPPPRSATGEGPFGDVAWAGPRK
# KCNQ2 enhance baseline = second read-out of KCNQ2 enhance, no call of its own (marks repeat the call); B-score; compound at 10 µM; measured here: initial fluorescence intensity artifact check;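 brightness before thallium and not channel activity; 0 = typical well and far values either way flag optical interference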
# The depositor's hits bear a star. This is a subset; the hit share may differ from the screen's.
molecule,KCNQ2 enhance,KCNQ2 enhance baseline
COc1ccc(Nc2oc(-c3ccc(Cl)cc3)nc2C#N)cc1,0.19,0
CC(=O)c1ccc(NC(=O)C2CCN(S(=O)(=O)c3cccc4nonc34)CC2)cc1,0.32,0.36
CCCCSc1nnc(-c2ccccc2N)c(=O)[nH]1,0.98,-0.94
C/C=C\C=C/C(=O)Nc1cccc(C2=NOC3(C2)C[C@H](C(N)=O)N(C(=O)c2ccc(OC)cc2)C3)c1 (some centres undefined),0.71,0.09
O=C1CN(S(=O)(=O)c2cccc(C(=O)O)c2)c2ccccc2N1,0.01,2.12
Clc1ccc(C2CC(c3cccs3)n3ncnc3N2)cc1 (centres undefined),0.93,0.01
COc1ccc(NC(=O)Nc2c(O)ccc3ccccc23)cc1,3.79,0.85
O=S(=O)(Nc1ccc2c(c1)OCCO2)c1cccs1,0.38,0.16
CCc1ccc(N(CC(=O)NC(C)(C)C)C(=O)CNC(=O)c2cccs2)cc1,0.37,-0.18
CCn1c(-c2nonc2NC(=O)c2ccccc2)nc2ccccc21,1.3,5.37
COc1cc(NC(=O)CCc2nnc3ccc(N4CCC5(CC4)OCCO5)nn23)cc(OC)c1,0.54,-0.06
C/C(=N\NS(=O)(=O)c1ccccc1)c1cccc(NC(=O)c2cccc(Cl)c2)c1,0.68,0.18
COc1ccc(C(=O)NC(=S)NCc2cccnc2)cc1OC,1,0.41
CCOC(=O)C1CCCN(C(=O)c2cc(S(=O)(=O)N3CCCCC3)ccc2C)C1 (centres undefined),0.49,1.25
COC(=O)c1sc(NC(=O)c2ccncc2)nc1C,0.02,1.15
COC(=O)c1sccc1NC(=O)c1ccoc1C,1.34,0.73
N#Cc1cccc(NC(=O)COC(=O)C2CCC2)c1,0.57,0.93
CCC(Oc1ccccc1)C(=O)Nc1ccc(S(=O)(=O)Nc2cnc3ccccc3n2)cc1 (centres undefined),0.67,0.27
Cc1ccccc1NC(=O)C(C)c1cccc(C(=O)c2ccccc2)c1 (centres undefined),5.27,-0.04
CN(C)C(=O)CSc1nnc(Cc2ccc([N+](=O)[O-])cc2)o1,0.45,-1.82
CCOc1ccccc1/C=C(/C#N)C(N)=O,2.36,1.21
O=C(/C=C/c1cccs1)Nc1sc2c(c1C(=O)O)CCCC2,0.73,-0.6
COc1cc(/C=C2\CCCc3c2nc2ccccc2c3C(=O)O)cc([N+](=O)[O-])c1O,0.49,0.18
Cc1ccc(C)n1-c1sccc1C(=O)O,0.37,-0.02
CN(CCNC(=O)c1ccc(CS(=O)(=O)c2ccc(Br)cc2)o1)CCc1ccccc1,0.14,0.83
CCn1c(C)cc2c(c1=O)C(c1ccccc1)C(C(=O)OC)=C(N)O2 (centres undefined),1.3,-1.25
Cc1ccc(C(=O)O)c(C(=O)Nc2nc(C)cs2)c1,0.92,1.21
COc1ccccc1CCNS(=O)(=O)CCNC(=O)c1ccccc1,0.17,1.3
Cn1nnnc1SCC(=O)N1CCCc2ccccc21,0.15,1.12
O=C(NCCc1ccccn1)c1ccc(S(=O)(=O)N2CCCCCC2)cc1,0.59,-0.45
CCOc1ccccc1N(C(=O)Nc1ccc(Cl)cc1)C1=NCCS1,0.35,-0.08
CC(C)(C)c1ccc(NC(=O)CCNC(=O)c2ccco2)cc1,0.29,0.23

# Looked up above.
# In KCNQ2 enhance, CC(=O)c1ccc(NC(=O)C2CCN(S(=O)(=O)c3cccc4nonc34)CC2)cc1 has 0.32
# In KCNQ2 enhance, CCOc1ccccc1/C=C(/C#N)C(N)=O has 2.36
# In KCNQ2 enhance baseline, CCCCSc1nnc(-c2ccccc2N)c(=O)[nH]1 has -0.94

# The listing continues:
molecule,KCNQ2 enhance,KCNQ2 enhance baseline
CCc1nc2ccccc2c(=O)n1NC(=O)c1c(O)c2ccccc2[nH]c1=O,0.88,1.71
CCCC(=O)Nc1sc(C)c(-c2ccc(C(C)CC)cc2)c1C#N (centres undefined),1.99,0.42
COc1cc(NS(=O)(=O)c2ccc(NC(=S)NC(=O)c3ccc(Br)cc3)cc2)ncn1,1.49,-0.03
COc1ccc(C(=O)Nc2ccc(Cn3ccnc3)cc2)cc1OC,0.01,3.84
C/C(N)=C(/C#N)C(=O)CSc1nnnn1-c1ccc(C)cc1C,1.47,-2.16
O=C(CCNC(=O)c1ccccc1Cl)Nc1ccc2c(c1)OCO2,0.77,-0.36
O=C(COc1ncnc2sccc12)NC1CCS(=O)(=O)C1 (centres undefined),0.41,0.92
Cc1cccc(-n2c(O)c(C=Nc3cc(O)ccc3C)c3ccccc3c2=O)n1,1.35,-0.52
O=C(CC12CC3CC(CC(C3)C1)C2)NCc1ccco1,1.85,1.79
Cc1cc(C)nc(SCc2nnc(SCC(=O)O)n2-c2ccccc2)n1,0.01,-0.68
O=C1CC(NS(=O)(=O)c2ccccc2F)CN1c1ccc2c(c1)OCCO2 (centres undefined),1.64,-1.53
N#CC1=C(S)N(c2ccc(F)cc2)C2(CCCCC2)NC1=O,0.1,-0.33
Nc1c(Br)c(=O)[nH]c(=O)n1-c1ccccc1,0.45,1.38
CCOC(=O)c1cnc(-n2nc(C)cc2C)nc1NCc1ccc2c(c1)OCO2,2.73,0.01
COc1ccccc1NS(=O)(=O)c1c(C)[nH]c(C)c1C(=O)N1CCCC1,0.89,1.06
CCC(=O)NC1CCN(C(=S)NC)CC1,0.88,-0.99
CCS(=O)(=O)N1CCN(Cc2nc3ccccc3c(=O)[nH]2)CC1,1.02,-3.09
Cc1c(CC(=O)O)c(=O)oc2c(C)c(OCc3ccccc3Br)ccc12,0.16,0.53
CCOC(=O)C1=C(COC(=O)c2c(OC)cccc2OC)NC(=O)NC1C (centres undefined),1.49,-0.49
O=C(CN1CCOCC1)N1CCCc2c1c(=O)oc1ccc(OCc3ccccc3)cc21,0.42,-0.07
Cc1ccc(C(=O)N/N=C/c2cc(C)n(-c3ccc(Br)cc3)c2C)cc1[N+](=O)[O-],0.1,1.09
Cc1ccc(NC(=O)C2CCN(S(=O)(=O)c3cccc4nonc34)CC2)cc1,0.48,0.86
CC(=O)c1cc(CCC(=O)NC2CCCCCC2)oc1C,0.01,0.35
COc1ccc(-n2nc(C(=O)NCC(=O)NCCc3ccc(OC)c(OC)c3)c3ccccc3c2=O)cc1,0.12,0.58
CCCCN(CCCC)c1ccc(C(=O)c2ccccc2C(=O)O)c(O)c1,8.92*,5.13*
CCN=C(Nc1cccc(F)c1)SC1CC(=O)N(c2ccc(OC)cc2)C1=O (centres undefined),1.17,0.54
CCOc1nnnc2c1sc1nc(N3CCOCC3)c3c(c12)CCCC3,1.87,1.51
Cc1n[nH]c(=O)c2c(NC(=O)CSc3nnnn3-c3ccc(O)cc3)oc(C)c12,0.03,-0.23
NC(=O)COc1ccc2oc(=O)cc(-c3cc4ccccc4o3)c2c1,0.88,-2.03
CCCCC(CC)C(=O)Nc1cc(=O)[nH]c2nc3ccccc3n12 (centres undefined),0.5,0.55
Cc1ccc(OCC(=O)NNC(=O)c2cc3ccccc3o2)cc1C,0.12,1.45
CC(=O)c1ccc(NC(=O)c2ccc(-n3cncn3)c([N+](=O)[O-])c2)cc1,0.27,-1.15
O=C(Nc1cccc(C(=O)O)c1)/C(=C\c1ccccc1Cl)NC(=O)c1ccco1,0.77,1.29
COc1cc(OC)c(NC(=O)CCc2nc(-c3cccs3)no2)cc1Cl,1.93,1.38
CN1C(=O)Cc2cc(S(=O)(=O)Nc3ccc(Cl)cc3)ccc21,0.69,0.12
CCOc1ccc2nc(NC(NC(=O)CC)(C(=O)OC)C(F)(F)F)sc2c1 (centres undefined),0.75,-0.03
O=C1CC(=O)N(CCNc2ncc(C(F)(F)F)cc2Cl)C(=O)N1,1.69,0.1
COc1ccc(S(=O)(=O)N2CCCCCC2)cc1C(=O)N(C)CC(=O)Nc1ccc(Cl)c(Cl)c1,0.02,-0.04
CCN(CC(=O)NCc1ccc(F)cc1)C(=O)Cc1ccc(OC)cc1,0.06,-0.45
Cc1cccc(NC(=S)Nc2ccc3cn[nH]c3c2)c1,0.44,0.3
CCCCCCCCN1C(=O)C(O)=C(C(C)=O)C1c1ccccn1 (centres undefined),0.62,1.3
CCN(CC)C1=C(Cl)C(=O)C(Cl)C12OCCO2 (centres undefined),0.5,-1
Cc1ccc(N(CC(=O)N2CCCCCC2)S(C)(=O)=O)cc1Cl,0.17,0.89
CCn1c(=O)n(CC(=O)N2CCN(c3ccccc3F)CC2)c(=O)c2ccccc21,4.81,1.88
COc1ccc(/C(O)=C2/C(=O)C(=O)N(CCN(C)C)C2c2ccc(OC)c(OC)c2)c(C)c1 (centres undefined),1.44,-0.02
Cc1ccc(N2CCN(S(=O)(=O)c3ccc4c(c3)oc(=O)n4C)CC2C)cc1 (centres undefined),2.13,-0.73
Cc1ccc(N2C(=O)CC(c3ccsc3)C3=C2CC(C)(C)CC3=O)cc1 (centres undefined),0.07,1.19
NS(=O)(=O)c1ccc(CCNC(=O)CN2C(=O)COc3ccc(S(=O)(=O)N4CCCC4)cc32)cc1,0.88,-0.03
NC(=O)NC(=O)COC(=O)c1cccc(S(=O)(=O)N2CCCCCC2)c1,0.05,-1.15
CC(C)(C)C(=O)Nc1ccccc1C(=O)Nc1cc(Cl)ccc1Cl,1.08,-1.11
COc1c(Br)cc(/C=N/n2c(-c3ccccc3)n[nH]c2=S)c(O)c1Br,3.66,-0.01
O=C(C(c1ccccc1)N1CCOCC1)N1CCOCC1 (centres undefined),0.24,-0.73
COc1ccc2c(c1)-c1nc(NC(=O)c3ccco3)sc1CC2,0.96,-0.86
COC(=O)c1ccc(NC(=O)Nc2ccc(F)cc2F)cc1,0.92,-0.1
C/C(=N/NC(=O)c1cc(O)c(O)c(O)c1)c1ccc([N+](=O)[O-])cc1,0.13,-1.13
COc1ccc(CNc2ncnc3cc(OC)c(OC)cc23)cc1OC,1.07,-0.07

# Next part
molecule,KCNQ2 enhance,KCNQ2 enhance baseline
CN1CCN(CCCNC(=O)c2ccc3c(Cl)c4c(nc3c2)CCCC4)CC1,1.27,-0.2
O=c1c(Cc2ccc(F)cc2)c(O)ccn1Cc1ccco1,0.59,0.2
O=C(OCC(=O)N1CCOCC1)c1ccccc1SCC(=O)N1CCCC1,0.62,1.64
CCn1cnc2c1c(=O)[nH]c(=O)n2Cc1ccccc1,2.32,-0.03
Cc1onc(C(=O)NCCc2ccccc2)c1[N+](=O)[O-],0.44,0.55
Cc1cnc(NC(=O)Nc2ccc(Cl)cc2)s1,0.61,-0.02
Cc1cccnc1Nc1ncnc(N)c1[N+](=O)[O-],1.33,0.04
COc1ccc(CCN2C(=O)CSC2=S)cc1OC,0.34,0.96

# Some of the entries so far, with each value named.
CCn1cnc2c1c(=O)[nH]c(=O)n2Cc1ccccc1
- KCNQ2 enhance = 2.32
- KCNQ2 enhance baseline = -0.03
O=C(OCC(=O)N1CCOCC1)c1ccccc1SCC(=O)N1CCCC1
- KCNQ2 enhance = 0.62
- KCNQ2 enhance baseline = 1.64

# The list goes on.
molecule,KCNQ2 enhance,KCNQ2 enhance baseline
O=C1NC(=O)/C(=C/c2cccc3ccccc23)S1,2.16,0.17
N#CCCN(C(=O)COC(=O)CCc1c[nH]c2ccccc12)c1ccccc1,0.11,-1.2
CSc1nnc(-c2cccs2)n1C,0.58,0.28
CCOc1ccc(N/C(=N/c2nc(C)cc(C)n2)NC(=O)CC)cc1,0.04,3.87
O=C(CN1C(=O)/C(=C/c2ccc(F)cc2)SC1=S)NC1C=CS(=O)(=O)C1 (centres undefined),1.05,0.32
CCC(C)n1c(SCC(=O)NCCc2ccc(S(N)(=O)=O)cc2)nc2ccsc2c1=O (centres undefined),1.4,-0.18
O=C(O)c1cn[nH]c1-c1cccc([N+](=O)[O-])c1,0.47,4.28
COc1ccc(/C=c2\sc3nc(=O)c(C)nn3c2=O)c(OC)c1,1.88,0.05
N#Cc1ccc(Sc2nc3ccccc3[nH]2)cc1C#N,1.26,0.29
CC1CCCC(NC(=O)CNCc2ccccc2F)C1C (centres undefined),0.61,0.78
CNC(=O)NC(=O)C(C)OC(=O)c1ccc(Cl)c(S(=O)(=O)Nc2ccc(F)cc2)c1 (centres undefined),0.98,-0.25
CCOC(=O)N1CCC(N2Cc3cccc(C(=O)NCc4ccc(C)cc4)c3C2=O)CC1,0.86,-0.15
Cc1nn2c(N3CCCC3)cc(C(C)C)nc2c1-c1ccccc1,0.17,-0.25
O=C(CN1C(=O)NC2(CCCC2)C1=O)Nc1ccccc1F,0.07,2.1
N/C(=N\OC(=O)COc1ccc2ccccc2c1Br)c1cccnc1,1.14,-0.12
COc1ccc(C2=NCCc3cc(OC)c(OC)cc32)cc1,0.32,0.64
CC(C)(C)c1csc(NC(=O)CSC2=NCCS2)n1,2.14,-0.12
COC(=O)C1=C(C)NC(=O)C1(Nc1nccs1)C(F)(F)F (centres undefined),0.61,-0.48
Cc1c(Cl)c([N+](=O)[O-])nn1CCCC(=O)NCCc1ccccc1,0.98,0.52
O=C(NC1CC2CCCC(C1)N2C(=S)Nc1ccccc1)C1CC1 (centres undefined),0.83,1.24
CCS(=O)(=O)N1CCN(c2ccc([N+](=O)[O-])c(N3CCOCC3)c2)CC1,0.83,-1.43
COC(=O)NC(NS(=O)(=O)c1ccccc1)(C(=O)OC)C(F)(F)F (centres undefined),0.22,1.07
Cc1ccccc1C(=O)N1CCC(C(=O)Nc2ccc3c(c2)OCCO3)CC1,0.13,-1.55
Cc1c(-n2c(-c3ccccc3Cl)n[nH]c2=S)c(=O)n(-c2ccccc2)n1C,0.47,0.25
CCCc1nnc(SCC(=O)Nc2ccc(OC)cc2)o1,0.53,0.75
COc1ccc(-c2nnc(SCC(=O)OC3CCCCC3)o2)cc1OC,0.58,0.31
CCOC(=O)C1/C(=N\O)CC(C)(O)C(C(=O)OCC)C1c1ccc(OC)c(OC)c1 (centres undefined),0.33,0.13
